# Assay outcomes: PubChem, National Center for Advancing Translational Sciences (NCATS)
# Six1-Eya2 blk: inhibitors of human Six1/Eya2 interaction | Q15475+O00167 | AlphaScreen GST-Six1/His-Eya2 binding, biochemical; hits give low values; control for the full effect not named in the record | activity change, % (concentration not given with the values) | hit rate 0.56% among 360,000 | AID 651725; in the data active = activity change below about -65%; inconclusive = about -30% to -65%; inactive = above about -30%; also: % is scaled to controls: 0 for no effect and ±100 for the full control effect
#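 AlphaScreen luminescence read after one hour at 37 °C in darkness. Pin-transferred compounds met GST-Six1 and His-Eya2 protein (5X stock 250 nM/500 nM) plus glutathione donor and Ni-chelate acceptor beads (5X, 50 ug/mL).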
# PINK1 expr mod: modulators of PINK1 expression; PINK1 immunofluorescence, high-content cytometry, 24 h; hit rate 0.2% among 410,000; Potency, µM (series often up to 76.6 µM), for inactives: top-dose activation (PINK1 increase), actives largely listed as activators; active = well fitted activation curve with a large enough effect; inconclusive = small, poorly fitted or top-dose-only effect; inactive = flat fitted curve, though single readings scatter; cell line not stated here;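 also: potency is read from the fitted curve at half-maximal effect; % of control where 0% means no effect; nearly all actives have a fitted effect of over 65% in size; a mitochondrial uncoupler was the plate control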
#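 Fluorescence from anti-PINK1 antibody, together with nuclear and cell stains, was scanned on a laser-scanning cytometer. Before staining, stable-line cells were incubated 24 hours with compounds at 5 concentrations; primary antibody 12 h at 10 degrees C.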
# TRPML1 inh: blocks the human TRPML1 channel. Q9GZU1. TRPML1-inducible cells, Ca2+ dye fluorescence, FDSS; hits give low values; inhibition of EC80 agonist-evoked calcium signal. activity change, negative = inhibition, % (test concentration not listed). hit rate 0.02% among 390,000. AID 624415; in the data active means activity change below about -50%; inconclusive means about -30% to -50%; inactive means above about -30%;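 also: stimulus is agonist 54-4 at its EC80 concentration; % is scaled to controls: 0 for no effect and ±100 for the full control effect; compound concentration not given in the record; the text of the record puts the active cut at -80%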
# Target sequence (Q9GZU1 whole entry, looked up): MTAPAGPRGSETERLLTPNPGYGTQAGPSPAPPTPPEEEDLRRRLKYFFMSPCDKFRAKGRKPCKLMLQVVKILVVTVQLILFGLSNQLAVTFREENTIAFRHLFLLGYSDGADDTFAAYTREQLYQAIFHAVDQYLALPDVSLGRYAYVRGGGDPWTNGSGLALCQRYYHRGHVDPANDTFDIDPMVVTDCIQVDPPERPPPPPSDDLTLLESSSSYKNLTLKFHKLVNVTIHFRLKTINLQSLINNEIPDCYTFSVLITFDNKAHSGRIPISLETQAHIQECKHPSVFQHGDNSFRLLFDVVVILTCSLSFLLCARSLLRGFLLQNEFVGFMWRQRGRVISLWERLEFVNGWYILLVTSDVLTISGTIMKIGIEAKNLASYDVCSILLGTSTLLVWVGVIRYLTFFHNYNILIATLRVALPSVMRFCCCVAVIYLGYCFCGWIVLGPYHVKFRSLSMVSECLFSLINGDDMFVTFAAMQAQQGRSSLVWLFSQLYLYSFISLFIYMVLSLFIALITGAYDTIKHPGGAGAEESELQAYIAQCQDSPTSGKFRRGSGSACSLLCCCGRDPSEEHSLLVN
#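 Tet-induced TRPML1-DL cells loaded with Ca8 no-wash calcium dye were read kinetically on FDSS. Compound addition was followed by EC80 agonist 54-4 (4 uM final); inhibition was read over 110 s.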
# D2 agonist: activates the human D2 dopamine receptor | hit rate 0.084% among 360,000 | activation, % (no concentration beside the values) | DiscoveRx PathHunter D2 beta-arrestin, luminescence, 90 min; 100% = 57 uM dopamine signal | P14416 | AID 624465; in the data active = activation above about 40%; inconclusive = about 15% to 40%; inactive = below about 15%; also: compound concentration not given in the record; the text of the record calls up to 30% inactive
# Target sequence (P14416 whole entry, looked up): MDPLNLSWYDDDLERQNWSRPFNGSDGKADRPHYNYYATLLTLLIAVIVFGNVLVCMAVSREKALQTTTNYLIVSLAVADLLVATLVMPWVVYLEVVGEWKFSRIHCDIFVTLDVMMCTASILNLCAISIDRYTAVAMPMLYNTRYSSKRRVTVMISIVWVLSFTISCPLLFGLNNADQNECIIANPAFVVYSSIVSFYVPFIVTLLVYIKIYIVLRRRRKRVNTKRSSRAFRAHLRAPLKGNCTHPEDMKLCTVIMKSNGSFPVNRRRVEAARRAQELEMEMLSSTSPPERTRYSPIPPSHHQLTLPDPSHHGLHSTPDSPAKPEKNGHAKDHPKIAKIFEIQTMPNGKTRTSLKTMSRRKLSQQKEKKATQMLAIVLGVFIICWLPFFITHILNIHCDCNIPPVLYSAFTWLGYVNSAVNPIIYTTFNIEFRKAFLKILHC
#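 DiscoveRx PathHunter D2 beta-arrestin cells (2,100/well) attached overnight, then compound-stimulated 90 min at 37 C in HBSS/10 mM HEPES/0.1% Tween-20 buffer; beta-galactosidase complementation read by luminescence after 1 h at ambient temperature. Dopamine 57 uM final (EC100) as control.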
# TRPML1 agonist: activates the human TRPML1 channel | activation, % (concentration not given with the values) | TRPML1-expressing cells, Ca2+ dye fluorescence, FDSS; host cell line not named in the record; reference of the full effect not given here | AID 624414 | Q9GZU1 | hit rate 0.12% among 410,000; in the data active = activation above about 50%; inconclusive = about 30% to 50%; inactive = below about 30%; also: 0% is about no effect; the text of the record puts the active cut at 80%
#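 Tet-induced TRPML1-DL cells, 1,500 per well, cultured overnight, were loaded with a no-wash Ca2+ dye for 45–90 min. Calcium fluorescence was recorded on the FDSS for 110 s after compound addition, before the EC80 agonist (4 uM 54-4) was added.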
# D2 potentiator: human D2 receptor positive allosteric modulation; potentiation, % (no concentration beside the values); hit rate 0.23% among 360,000; AID 624464; DiscoveRx D2 beta-arrestin cells, luminescence, 90 min; 100% = 57 uM dopamine signal; active = potentiation of 50% or more; inconclusive = 30% to 50%; inactive = 30% or less;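 also: compound concentration not given in the record; tested on top of an EC20 dose of dopamine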
#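 PathHunter D2 cells, attached overnight at 37 deg C, received compound in DMSO plus dopamine at EC20 (50 nM final) for 90 min at 37 deg C. Beta-arrestin recruitment was read as luminescence after 1 h with detection reagent at ambient temperature.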
# * marks the source's active call; other numbers are inactive results; ? = inconclusive; · = no result given; & = joins results of further samples; [ ] = another dose, or the depositor's remark. The order is random; any-hit rate near 1%.
SMILES,Six1-Eya2 blk,PINK1 expr mod,TRPML1 inh,D2 agonist,TRPML1 agonist,D2 potentiator
O=C1c2ccccc2C(Nc2ccccc2)N1c1ccc(Cl)cn1 (configuration not stated),4,16%,21,2.2,3.3,-4
CN(C(=O)C1CCOC1)c1nnc(-c2ccncc2)s1 (configuration not stated),-4,-0.2%,3,-1.7,0.2,-2
O=C1CC(N2CCN(Cc3ccccc3)CC2)C(=O)N1 (configuration not stated),1,1.7%,7,-0.2,0.5,-12
CCN(CC)C(=O)C1CCCN(c2ncnc3c2nc2n3CCCCC2)C1 (configuration not stated),·,2.6%,-2,·,-0.7,·
COCC(=O)Nc1nc(-c2ccccc2)c(C)s1,-2,12%[38.3 µM],-2,0.6,0.3,-14
CC(Sc1nnc(-c2ccncc2)n1C)C(=O)Nc1nccs1 (configuration not stated),6,3.6%,-3,0.2,-0.1,1
Cc1cc(CNC(=O)C(C)n2cc([N+](=O)[O-])cn2)c2ccccc2n1 (configuration not stated),17,0.8%,-1,-4.1,0.5,-4
CCn1c(/C=C/Nc2ccccc2)[n+](CC)c2ccc(C(=O)OCC(F)(F)F)cc21,-9,-2.5%,1,3.0,-0.7,-17
O=C(C[C@@H]1C[C@H]2c3cc(NC(=O)c4cccnc4)ccc3O[C@H]2[C@H](CO)O1)NCc1ccc(Oc2ccccc2)cc1,-4,0.7%,-9,-9.4,0.1,-8
CCNC(=O)N1C(CC(=O)OCC)C(=O)NC2CCCCC21 (configuration not stated),6,3.3%,1,-3.1,-0.3,1
Cc1ccc(C)c(NC(=O)CSc2nncn3c2cc2sccc23)c1,·,0.8%,-1,·,-0.4,·
O=C(NCc1ccco1)c1ccc(Br)c(S(=O)(=O)N2CCCCC2)c1,-11,-2.4%[38.3 µM],41,1.3,0.8,-3
Nc1ccc(NC(=O)c2cccc(C(=O)Nc3ccc(N)cc3Cl)c2)c(Cl)c1,7,4.9%&11%,40&-6,-3.4,-1.0&-0.2,-2
COc1cccc(/C=N/Nc2ncnc3c2ncn3Cc2ccccc2)c1O,-78*,3.6%,-8,-5.2,2.3,3
O=C(NC(c1ccccc1)c1cnccn1)C1CCN(CCCOc2ccccc2)CC1 (configuration not stated),5,-1.4%,?,-7.0,-0.6,-19
CC(=O)Oc1cccc(N2C(=O)C3C(C2=O)C2C=CC3C23CC3)c1 (configuration not stated),-2,0.9%,2,1.0,-1.1,-9
CCOc1ccccc1NC(=O)Cn1nnc(C(=O)NCc2ccc(F)cc2)c1N,·,4.0%,57,·,-0.6,·
CC1CCc2nc(NCCO)nc(C(F)(F)F)c2C1 (configuration not stated),3,-6.7%[38.3 µM],-1,-0.2,-0.5,-16
CCCCc1ccc(NS(=O)(=O)c2cc3c4c(c2)CC(=O)N4CCC3)cc1,·,?,-12,·,0.1,·
Cc1nc(N2CCCC2)c2c(C(=O)N3CCN(c4cc(Cl)ccc4C)CC3)c(C)oc2n1,·,?,24,·,1.5,·
Cc1ccc(S(=O)(=O)NCC(=O)N(CC(=O)NC(C)(C)C)Cc2ccc3c(c2)OCO3)cc1,6,0.7%,-15,-2.4,0.2,0
CCOC(=O)C1CCN(c2nc(C)nc3c2oc2ccccc23)CC1,2,0.5%,6,1.1,2.5,-3
CC(=O)c1ccc(N2CCN(c3nc4ccccc4c4nc(-c5cccc(C)c5)nn34)CC2)cc1,·,10%,13,·,2.5,·
Cc1noc(NS(=O)(=O)c2ccc(NC(=O)c3oc4ccc(F)cc4c3C)cc2)c1C,-4,-0.5%,-3,1.7,-0.4,-10
Cc1ccccc1C(=O)NCC(c1ccc(N(C)C)cc1)N1CCCC1 (configuration not stated),·,-1.2%,-19,·,-0.9,·

# Other records.
SMILES,Six1-Eya2 blk,PINK1 expr mod,TRPML1 inh,D2 agonist,TRPML1 agonist,D2 potentiator
CC(C)c1ccc(NC(=O)NC2CC3CCC(C2)N3Cc2cccs2)cc1 (configuration not stated),7,6.3%,-15,-1.2,0.7,-13
O=C(CCc1c[nH]c2ccccc12)NCCc1ccc2c(c1)OCCO2,-7,-1.1%,-6,0.5,-1.1,0
Cn1nc(C(=O)NCCc2ccc(S(N)(=O)=O)cc2)c2c1-c1ccccc1S(=O)(=O)C2,4,-0.7%,-14,1.9,0.1,13
COc1ccc2ccccc2c1CNC(C)c1ccccc1 (configuration not stated),10,7.4%,11,0.7,0.2,-43
Cc1ccc(NCC(=O)N/N=C/c2cccn2C)cc1,-14,-0.8%,-1,-2.2,0.4,-13
CCC1CCCCN1CCCNC(=O)CSc1nc2nc(C)c(Cc3ccccc3)c(C)n2n1 (configuration not stated),-6,0.3%,2,-2.4,0.2,-10
CC(=O)c1cccc(NC(=O)Nc2cnn(Cc3ccc(Cl)cc3Cl)c2)c1,-2,4.7%[38.3 µM],4,2.2,-0.2,-2
COc1ccc(S(=O)(=O)Nc2nnc(Cc3ccc(OC)c(OC)c3)s2)cc1,-1,0.7%,-16,-1.0,-0.6,0
CC(NC(=O)C1CCN(S(=O)(=O)Cc2ccccc2)CC1)c1ccccc1 (configuration not stated),·,0.6%,-10,·,1.1,·
Cc1ccn2cc(-c3cc4ccccc4oc3=O)nc2c1,13,0.8%,12,-1.9,-0.8,4
O=C(CNC(=O)c1ccc2c(c1)OCCO2)N/N=C/c1ccc(O)cc1O,-77*,0.7%,10,-4.5,0.0,-22
Cc1ccc(/C=c2\sc3n(c2=O)CN(c2cccc(Br)c2)CN=3)o1,-14,3.5%,-3,0.0,0.6,-5
NS(=O)(=O)c1cccc(NC(=O)c2ccno2)c1,2,0.1%,-7,-3.1,0.3,-5
CCOC(=O)N1CCC(NC(=O)CCC(=O)N2CC(C)Oc3ccccc32)CC1 (configuration not stated),14,-0.6%,14,-4.7,-1.7,14
COc1ccc(C(=O)Nc2ccccc2N2CCN(C(=O)c3ccccc3)CC2)cc1Br,-11,-1.0%,56,2.8,1.2,-22
CCN(C(=O)c1cn(C)c(=O)c2cc(OC)c(OC)cc12)c1cc(OC)ccc1OC,1,-1.1%,0,-3.2,-0.6,-10
CCOC(=O)CNC(=O)c1cc(OC)cc(OC)c1,0,-2.4%,20,3.7,1.3,-1
CC(C)NC(=O)Cn1c(SCC(=O)c2ccc(F)cc2)nc2ccccc21,6,-2.6%,34,-1.1,4.8,-18
COC(=O)CSc1nc(N2CCOCC2)c2c(c1C#N)CC(C)(C)N(C)C2,0,-1.5%,16,-2.1,-1.2,-22
Cc1ccccc1N1CCN(Cc2nc(Cc3ccccc3)no2)CC1,3,0.6%,-8,-2.0,0.5,-6
O=C(CSc1nnc(-c2cccnc2)o1)N1CCCCC1,-1,-1.5%,-4,-4.9,-0.1,-2
NC(=O)c1cc2ccccc2o/c1=N/NC(=O)c1cccs1,?,2.6%,25,1.3,3.1,-17
Cc1nn(C)cc1C1C2=C(CC(C)(C)CC2=O)N(c2ccccc2)C2=C1C(=O)CC(C)(C)C2,2,-0.4%,3,-1.9,0.1,-2
Cc1ccc(-c2csc(/C(C#N)=C/Nc3ccc4c(c3)OCCO4)n2)cc1,-2,11%,-1,7.1,1.0,-2
COC(=O)CN(C)C(=O)CC1C(=O)NCCN1CC(C)(C)C (configuration not stated),-1,-0.6%,-4,-1.9,1.2,-3

# (further entries)
SMILES,Six1-Eya2 blk,PINK1 expr mod,TRPML1 inh,D2 agonist,TRPML1 agonist,D2 potentiator
COc1ccc(Cl)cc1NC(=O)C1CCN(C(=O)Nc2ccccc2)CC1,0,-0.2%,15,-7.1,-0.5,-4
COC(=O)c1cccc(N(CC(=O)NC2CCCCC2)C(=O)CNC(=O)c2cccs2)c1,1,-2.6%,-6,3.0,-0.3,-1
Cc1cc(-c2nnc(SCc3ccccn3)o2)no1,4,-4.6%[38.3 µM],12,0.3,0.2,6
C#CCOCCOCCOCCNc1nc(N2CCN(C(=O)[C@H](CCC(=O)O)n3cc([C@@H](N)[C@H](C)CC)nn3)CC2)nc(N2CCN(C(=O)[C@H](CCC(=O)O)n3cc([C@@H](N)CCSC)nn3)CC2)n1,-3,-0.2%,-14,-6.7,-0.2,-4
O=C(NNC(=S)NCc1ccccc1)c1ccc(Br)cc1,-12,2.5%,3,-2.6,-0.5,-12
O=C(c1ccc(COc2ccc3ccccc3c2)o1)N1N=C(C(F)F)CC1(O)C(F)F (configuration not stated),4,-0.5%,-1,-0.8,2.0,-14
CC(NC(=O)c1ccccc1)C(=O)OCC(=O)c1ccc(Br)cc1 (configuration not stated),9,0.0%,15,-7.8,0.3,-14
COc1ccc(O)c(/C=N/NC(=O)CCC(=O)Nc2ccc(C)cc2)c1,-1,1.1%,32,-0.2,2.4,-8
CC(C(=O)NCCCc1ccccc1)n1cccc1C(=O)c1ccccc1 (configuration not stated),-1,-1.3%,-6,0.5,0.2,-3
CCOC(=O)c1cccc(NC(=O)N2CCC(CN3CCCCCC3)CC2)c1,·,0.4%,19,·,2.6,·
O=C(Nc1ccc(Cl)cc1)Nc1nnc(SCc2ccccc2)s1,4,1.8%,-2,-2.4,-0.2,-1
COc1cccc(-c2nn(-c3ccccc3)cc2CN(C)Cc2ccon2)c1,26,1.4%&1.4%,-9,-7.5,2.9&-0.8,-9
COC(=O)C1=C(C)Nc2nnnn2C1c1ccccc1Cl (configuration not stated),-8,1.8%,-13,-2.4,1.6,-16
Cc1ccc(-n2c(P(C)(=O)O)nc3ccccc32)cc1,-4,0.9%,4,4.0,0.4,-1
COc1ccc(NC2CCCN(C(=O)c3ccc4[nH]c(C)c(C)c4c3)C2)cc1 (configuration not stated),-16,0.9%,-1,-1.2,-1.0,-8
CCOc1ccc(C(=O)Nc2nnc(SCC(=O)NCC3CCCO3)s2)cc1 (configuration not stated),-6,1.7%,1,-3.3,-0.6,-7
CC(C)(C)c1ccc(CSc2nnc(-c3ccccn3)n2Cc2ccco2)cc1,-22,-2.1%,2,-6.9,1.2,-2
O=C(NCCO)C1COc2ccccc2O1 (configuration not stated),1,-0.1%,-10,-3.6,-1.2,-3

# 7 neighbouring entries already listed, quoted:
SMILES,Six1-Eya2 blk,PINK1 expr mod,TRPML1 inh,D2 agonist,TRPML1 agonist,D2 potentiator
O=C(CCc1c[nH]c2ccccc12)NCCc1ccc2c(c1)OCCO2,-7,-1.1%,-6,0.5,-1.1,0
Cn1nc(C(=O)NCCc2ccc(S(N)(=O)=O)cc2)c2c1-c1ccccc1S(=O)(=O)C2,4,-0.7%,-14,1.9,0.1,13
COc1ccc2ccccc2c1CNC(C)c1ccccc1 (configuration not stated),10,7.4%,11,0.7,0.2,-43
Cc1ccc(NCC(=O)N/N=C/c2cccn2C)cc1,-14,-0.8%,-1,-2.2,0.4,-13
CCC1CCCCN1CCCNC(=O)CSc1nc2nc(C)c(Cc3ccccc3)c(C)n2n1 (configuration not stated),-6,0.3%,2,-2.4,0.2,-10
CC(=O)c1cccc(NC(=O)Nc2cnn(Cc3ccc(Cl)cc3Cl)c2)c1,-2,4.7%[38.3 µM],4,2.2,-0.2,-2
COc1ccc(S(=O)(=O)Nc2nnc(Cc3ccc(OC)c(OC)c3)s2)cc1,-1,0.7%,-16,-1.0,-0.6,0
